Rango complex inh = qHTS Assay for Inhibitors of Rango (Ran-regulated importin-beta cargo) - Importin beta complex formation | Importin subunit beta-1 (Homo sapiens), Q14974 | Rango CFP/YFP FRET sensor + importin beta, 45 min | Potency, µM (series often up to 92.2 µM), for the others: at the top dose inhibition of complex formation | 0.031% of 340,000 active | AID 540263, 2011; active = rising FRET ratio curve, often small or poorly fitted; inconclusive = mostly compound fluorescence or quenching in the first reads; inactive = flat curves in all reads;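 note: potency is the fitted concentration of half-maximal effect; 0% = DMSO wells and 100% = buffer wells lacking importin beta; nearly all actives have a fitted effect of over 15% in size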
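Inhibition scored from the CFP 486 nm/YFP 530 nm FRET ratio 45 min after adding 0.125 microM importin beta to 50 nM Rango biosensor preincubated 5 min with compound (room temperature, PBS with DTT, Tween-20, BSA). No-importin wells as positive control.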
Rango dissoc inh = qHTS Assay for Inhibitors of RanGTP induced Rango (Ran-regulated importin-beta cargo) - Importin beta complex dissociation; Snurportin-1 (Homo sapiens) + GTP-binding nuclear protein Ran (Homo sapiens) + Importin …; Biochemical FRET Rango-importin beta, RanGTP-induced dissociation; 0.071% of 340,000 active; AID 540253, 2011; Potency, µM (doses to about 46.1 µM), inactives show at the top dose activity change, negative = inhibition; active means falling FRET ratio curve, often poorly fitted, with flat reads before Ran was added; inconclusive means other falling curves, or compound fluorescence or quenching; inactive means flat or rising ratio curve;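 note: potency is the fitted concentration of half-maximal effect; % of control where 0% means no effect; nearly all actives have a fitted effect of over 45% in size; -100% = wells without RanGTP and RCC1; the record marks most hits as doubtful in a second field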
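Rango/importin beta premix (0.1/0.25 uM final), PBS + 1 mM DTT + 0.02% Tween-20 + 0.1% BSA; cpd 5 min RT; FRET pre-read; + RanGTP-RCC1 (0.6 uM Ran, 2 mM GTP, 0.2 uM RCC1); 45 min RT; FRET post-read, ex 430, em 486/530 nm.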
GLA inh pH 4.5 = qHTS Assay for Inhibitors of Human alpha-Galactosidase at pH 4.5 | 230,000 tested, under 10 active | activity change, negative = inhibition, % at 105 µM | purified enzyme, 4-MU-alpha-Gal fluorescence, pH 4.5; inconclusive = small, poorly fitted or top-dose-only inhibition, or a rising curve; inactive = flat fitted curve, though single readings scatter; no compound was filed as active;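 note: 0% = full activity with enzyme and -100% = basal without enzyme; dose as in the result columns while the protocol names 77 µM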
Target sequence (P06280 whole entry, looked up): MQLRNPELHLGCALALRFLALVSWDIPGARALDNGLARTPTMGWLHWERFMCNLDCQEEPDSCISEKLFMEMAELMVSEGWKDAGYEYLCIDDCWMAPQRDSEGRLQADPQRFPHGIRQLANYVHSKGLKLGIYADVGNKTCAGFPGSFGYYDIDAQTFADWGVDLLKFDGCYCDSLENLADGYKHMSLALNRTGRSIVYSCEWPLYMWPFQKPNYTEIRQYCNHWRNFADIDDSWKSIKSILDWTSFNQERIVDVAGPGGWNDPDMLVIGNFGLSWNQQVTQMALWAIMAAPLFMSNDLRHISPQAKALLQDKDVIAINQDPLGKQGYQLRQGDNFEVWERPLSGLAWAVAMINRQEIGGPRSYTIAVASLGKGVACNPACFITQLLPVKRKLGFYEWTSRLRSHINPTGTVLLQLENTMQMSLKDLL
miR-21 reporter = qHTS Assay for Modulators of miRNAs and/orActivators of miR-21. HeLa miR-21 FLuc reporter, luciferase, 48 h. Potency, µM (doses to about 38.3 µM), for inactives: at the highest dose reporter change, positive = more light. 340,000 tested, under 10 active; active = well fitted rising curve with a large enough effect; inconclusive = small, poorly fitted or top-dose-only effect; inactive = no such curve, though single readings can be large or run the other way;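 note: % of control where 0% means no effect; miR-21 action dims this reporter so a rising signal means less miR-21 action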
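Using DMEM plus 10% FBS, HeLa miR-21-FLuc cells are incubated with test compounds (final up to about 40uM) for 48 hours; firefly luciferase signal is then imaged following reagent-mediated lysis.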
An asterisk follows results filed as active; ? = inconclusive; / = not tested or not shown; & = joins results of further samples; [ ] = another dose, or the depositor's remark. Some of the compounds tested; the hit share may differ from the screen's.

Start of the data: the first seven compounds, ahead of the listing:
SMILES	Rango complex inh	Rango dissoc inh	GLA inh pH 4.5	miR-21 reporter
Cc1ccc(NC(=O)c2ccc(Cl)nc2)cc1	1.5%	-10%	3	-42%
O=C(CSc1cccc(C(F)(F)F)c1)Nc1nnc(C2CC2)s1	-0.6%	-15%	/	/
Cc1cc(-c2nnc(SCCC(=O)Nc3ccccc3)o2)no1	2.0%	2%	/	-3%
COc1ccc(OC)c(/C=N/NC(=O)C(=O)N2CCCCCC2)c1	4.2%	-4%	/	0%
CCc1ccc(-c2cc(C(=O)N/N=C/c3ccccn3)[nH]n2)cc1	0.4%	13%	-3	-15%
O=C(CSc1ncc(-c2ccc(F)cc2)n1Cc1ccco1)Nc1ccc2c(c1)OCO2	-0.8%	3%	-24	-33%
Cc1ccc(S(=O)(=O)N2CCC(C(=O)NNC(=O)c3ccccc3O)CC2)cc1C	1.7%	22%	/	/

This part in full, from the first entry:
SMILES	Rango complex inh	Rango dissoc inh	GLA inh pH 4.5	miR-21 reporter
Cc1ccc(NC(=O)c2ccc(Cl)nc2)cc1	1.5%	-10%	3	-42%
O=C(CSc1cccc(C(F)(F)F)c1)Nc1nnc(C2CC2)s1	-0.6%	-15%	/	/
Cc1cc(-c2nnc(SCCC(=O)Nc3ccccc3)o2)no1	2.0%	2%	/	-3%
COc1ccc(OC)c(/C=N/NC(=O)C(=O)N2CCCCCC2)c1	4.2%	-4%	/	0%
CCc1ccc(-c2cc(C(=O)N/N=C/c3ccccn3)[nH]n2)cc1	0.4%	13%	-3	-15%
O=C(CSc1ncc(-c2ccc(F)cc2)n1Cc1ccco1)Nc1ccc2c(c1)OCO2	-0.8%	3%	-24	-33%
Cc1ccc(S(=O)(=O)N2CCC(C(=O)NNC(=O)c3ccccc3O)CC2)cc1C	1.7%	22%	/	/
CCOc1ccc2nc(N3CCCC(C(=O)NCCCN4C(C)CCCC4C)C3)sc2c1 (centres undefined)	-3.3%	7%	/	-45%
Cc1cccc(C)c1NC(=O)CNC(=O)C(C)N(C)CC(=O)Nc1ccc(F)cc1 (centres undefined)	-1.4%	-11%	/	/
CCOCCCNC(=O)C1CCCN(S(=O)(=O)c2cccc3nsnc23)C1 (centres undefined)	1.3%	22%	/	-2%
COc1ccc(Cl)cc1NC(=O)c1nnn(CC(=O)Nc2cc(C)cc(C)c2)c1N	0.0%	0%	/	-6%
CC(C)CO/C(=N/S(=O)(=O)c1ccccc1)c1ccccc1	?	-2%	3	1%
CN(CC1CCCN(CCc2ccc(Cl)cc2)C1)C(=O)CC(F)(F)F (centres undefined)	0.2%	-20%	/	-8%
CC1Cc2ccccc2N1C(=O)c1ccc2nccnc2c1 (centres undefined)	3.1%	-3%	/	-3%
O=[N+]([O-])c1cccc(S(=O)(=O)Nc2ccc(Cc3ccncc3)cc2)c1	-2.5%	-7%	-4	10%
Cn1nnnc1SCc1ccc(C(=O)Nc2ccc(Br)cc2)cc1	-1.9%	3%	5	-16%
O=C(NC(=S)Nc1ccc(Cl)cc1Cl)C1CC1	-1.4%	5%	/	-59%
CC(C)c1ccc(OCC(=O)NC(Cc2c[nH]c3ccccc23)C(=O)O)cc1 (centres undefined)	-4.0%	-14%	?	1%&-7%
CCOC(=O)C(NC(=O)CC)(Nc1ccc(S(=O)(=O)Nc2ncccn2)cc1)C(F)(F)F (centres undefined)	7.8%	-2%	0	1%
Cc1ccc(S(=O)(=O)NN)c(C)c1N1CCCC1=O	3.8%	15%	-2	0%
O=C(NCc1ccccc1)c1ccc2c(=O)n(CC3CCCO3)c(=S)[nH]c2c1 (centres undefined)	-0.1%	2%	-19	1%
O=C(CSCc1ccccc1)N=Nc1c(O)[nH]c2ccccc12	?	-28%	-1	-72%
C=CCn1c2ccccc2c2nnc(SCCN3CCOCC3)nc21	1.2%	0%	/	-7%
COc1ccc(C(=O)N(C)Cc2ccc(OC)c(OC)c2OC)cc1S(=O)(=O)N1CCOCC1	-0.3%	-9%	/	/
CC(=O)c1ccc(NC(=O)c2noc3c2CCCCC3)cc1	2.8%	3%	7	-43%
COc1ccc(C(=O)N(C)C2CCCCC2)cc1OC1CCN(C(C)C)CC1	-2.5%	-7%	/	-8%
COC(=O)C(CCSC)NC(=O)/C=C/c1ccc(OC)cc1 (centres undefined)	-2.5%	-21%	-5	4%
COc1ccc(C(=O)NC(=S)Nc2ccccc2N2CCCCC2)cc1[N+](=O)[O-]	-3.9%	1%	-8	-7%
CC[C@]12c3[nH]c4cc(CCC(=O)N(C)C)ccc4c3CCN1C(=O)[C@@H](CC(=O)NCCc1ccccn1)C[C@@H]2C(=O)N1CCN(C(=O)c2ccco2)CC1	0.6%	-1%	/	/
CCOC(=O)c1c(N)sc(C(=O)N2CCOCC2)c1C	-2.6%	-4%	1	-7%
Cc1csc(-c2cnn(-c3ccccc3)c2NC(=O)c2ccccc2)n1	-3.7%	0%	6	-7%
CC(Sc1nnc(NC2CCCCC2)s1)C(=O)Nc1ccc2c(c1)C(=O)c1ccccc1C2=O (centres undefined)	-0.8%	9%	-8	-59%
O=C(Cn1cnc2c(cnn2-c2ccccc2)c1=O)Nc1ccc(S(=O)(=O)N2CCOCC2)cc1	2.3%	-3%	-19	24%
Cc1nc2c(Cl)cccc2[nH]1	-1.2%	19%	5	-2%
CC(=O)Nc1ccc(C(=O)COC(=O)C2CC2C)c(F)c1 (centres undefined)	0.5%	12%	/	/
COc1ccc(C(=O)NC2CC3CCCC(C2)N3CC(C)C)cc1OC (centres undefined)	0.1%	-13%	7	-1%
Cc1ccc(NC(=S)N2CCN(C(=O)c3ccccc3)CC2)c(C)c1	0.6%	10%	1	-1%
CCN(CC)c1ccc(NC(=O)CN2CCN(CC(=O)Nc3ccc(F)cc3)CC2)cc1	0.1%	-5%	-8	-2%
Cc1cccc(CCNC(=O)C2CCN(S(=O)(=O)N3CCOCC3)CC2)c1	3.0%	-11%	/	0%
CC(=O)c1c(C)[nH]c(C(=O)Nc2nc(-c3ccccc3)c(C)s2)c1C	3.9%	12%	-12	-7%
N#Cc1ccc(N2CCN(C(=O)c3cccs3)CC2)c(F)c1	0.2%	1%	/	-22%
Nc1cc(S(=O)(=O)N2CCCCC2)ccc1Oc1ccc(Cl)cc1	-1.7%	5%	-4	20%
COc1ccc(C(=O)NCc2ccc3c(c2)cc(C)n3C)cc1OC	0.1%	-2%	?	-1%
CCCn1cc(CN2CCCC(C(=O)c3cccc(OC(C)C)c3)C2)c(C)n1 (centres undefined)	0.2%	2%	1	6%
CNC(=O)[C@@H]1CCC(=O)N1	-2.9%	-17%	/	/
O=C(Nc1ccccc1N1CCOCC1)c1cc(Br)c(Br)s1	-0.4%	0%	8	0%
OCC[C@@H]1C[C@H](O)[C@@H](O)[C@]2(Cc3ccccc3CO2)O1	-1.9%	1%	/	2%
CCOC(=O)Cn1nc(C)c([N+](=O)[O-])c1C	-2.2%	-3%	1	3%
CC/C(=N\O)C(C)(C)/[N+]([O-])=C/c1ccc(Br)cc1	4.2%	-9%	-2	-2%
C[C@@H](C(=O)N1CCN(C(=O)OC(C)(C)C)CC1)n1cc(-c2cn([C@@H](C)C(=O)N3CCN(C(=O)OC(C)(C)C)CC3)nn2)nn1	/	/	2	-1%
CNC(=O)COc1cccc(C(=O)NCc2ccccc2)c1	0.1%	-5%	-10	-1%
CCn1cc2nc(SCC(=O)Nc3ccccc3F)n(Cc3ccccc3)c(=O)c2n1	2.6%	-10%	/	2%
COCCNC(=O)C(c1cccc(OC)c1)N(Cc1cccs1)C(=O)Cn1nnc2ccccc21 (centres undefined)	-0.9%	-4%	1	-6%
Cc1ccccc1COc1ccc2oc(C)c(C(=O)O)c2c1	3.5%	9%	-14	-4%
COc1ccc(C(=O)Nc2ccc(S(=O)(=O)Nc3onc(C)c3C)cc2)c(OC)c1	-0.9%	19%	5[21.1 µM]	-30%
O=C1c2ccccc2C(=O)N1CCc1csc(-c2cccc(F)c2)n1	3.1%	0%	-1	-3%
Cc1ccc(OCC(=O)NN=C2C3CC4CC(C3)CC2C4)cc1	-1.7%	12%	/	/
Cc1ccc(CSCCNC(=O)c2ccc(C)cc2)cc1	5.8%	-5%	0	-2%
O=C(O)c1ccccc1C1=Nc2ccc(O)cc2Oc2cc(O)ccc21	?	?	-1	-3%
CCOc1ccc(-n2cc(C(=O)Nc3cccc(OC)c3)c3cc(OC)c(OC)cc3c2=O)cc1	0.1%	-4%	0	9%
Going on with the list.
SMILES	Rango complex inh	Rango dissoc inh	GLA inh pH 4.5	miR-21 reporter
CCCCCCCCCC(=O)NNC(=O)c1c(O)c2ccccc2n(CC)c1=O	-1.1%	0%	-9	-3%
CCCOc1ccc(N2CC(C(=O)NC(C)C)CC2=O)cc1 (centres undefined)	1.4%	-6%	3	-1%
Cc1ccc2nc(-c3ccc(NC(=O)c4ccco4)cc3)[nH]c2c1	1.5%	5%	-15	-45%
O=C1Nc2cccnc2N(C(=O)CCl)c2ccccc21	-2.3%	-14%	/	?
COC(C(=O)Nc1cccc(F)c1)c1ccccc1 (centres undefined)	2.7%	-3%	-2	-6%
O=C(COC(=O)C1CC(=O)N(Cc2ccccc2)C1)Nc1ccccc1F (centres undefined)	5.6%	-13%	8	-9%
Cc1c(Cl)cnc(NC(=O)COC(=O)c2ccc(S(=O)(=O)NCc3ccco3)cc2)c1Cl	1.2%	-7%	2	-1%
Cn1nnnc1SCC(=O)NCc1cc([N+](=O)[O-])ccc1O	0.1%	-3%	-4	0%
COCCNS(=O)(=O)c1cc(Br)ccc1OC	1.3%	-4%	2	-1%
CCNC(=O)CC1C(=O)N(c2ccc(F)cc2)C(=S)N1CCc1ccncc1 (centres undefined)	-2.4%	26%	10	1%
O=C(Cc1coc2ccc3ccccc3c12)Nc1nccs1	?	-9%	6	15%
CC1CCN(C(c2ccc(N(C)C)cc2)c2nnnn2C(C)(C)C)CC1 (centres undefined)	?	0%	-2	-7%
CCCNC(=O)c1ccccc1NC(=O)COc1ccc(OC)cc1	3.2%	7%	2	-8%
COc1ccc(/C=N/NC(=O)C(C)n2cnc3ccccc3c2=O)cc1 (centres undefined)	-0.8%	0%	6	-8%
COc1ccc(CNC(=O)CCN2C(=O)c3ccncc3C2=O)cc1OC	-0.6%	-14%	-11	2%
Cc1cc(NCCC(C)C)n2nc(C)c(-c3ccccc3)c2n1	-0.9%	0%	3	-4%
CC(=O)/C(N=Nc1cccc(C(F)(F)F)c1)=C(\C)O	1.1%	14%	6	1%
O=C(CSc1nc2nc3c(cc2c(=O)n1-c1ccccc1)CCCC3)Nc1ccccc1	-3.7%	13%	-1	-3%
CCCCCN(C(=O)CCC(=O)OCc1cccc(C)c1)c1c(N)n(CCCC)c(=O)[nH]c1=O	-1.3%	-1%	/	/
CCCCC(CC)CNC(=O)C(=O)c1ccccc1NC(C)=O (centres undefined)	3.7%	0%	-5	-1%
O=C(Oc1ccc(N(Cc2cccs2)C2=NS(=O)(=O)c3ccccc32)cc1)c1ccccc1Cl	0.4%	-1%	-5	1%
Cc1ccccc1C(OCCN(C)C)C1CCCCC1 (centres undefined)	1.1%	-8%	-7	-2%
Cc1ccc(Nc2nc(C(=O)NCC3CCCO3)cs2)cc1 (centres undefined)	4.9%	-8%	3	-5%
CCc1ccc(CN2C(=O)c3ccccc3C2C(=O)NCc2cccnc2)cc1 (centres undefined)	0.3%	-2%	4[21.1 µM]	5%
CC(=O)Nc1nonc1NC(C)=O	0.4%	-7%	-1	1%
CCc1ccccc1NC(=S)N(CCN(C)C)C(C)c1cccnc1 (centres undefined)	1.4%	5%	1	3%
CCOC(=O)c1nn(-c2ccccc2)c2nc(Nc3ccccc3)cc(=O)n12	-0.8%	-12%	6	-5%

Compound activity as filed in PubChem BioAssay.
